RN4220 kill: kills Staphylococcus aureus RN4220; S. aureus RN4220 growth, OD600, 16 h; 330,000 tested, 0.33% active; AID 1259311; inhibition, % (concentration not given with the values);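 active = z-score of -3 or lower and OD600 up to 0.18 on both plates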;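 also: plate controls were untreated cells for no effect and reference antibiotic for full effect; stock transfer was 100 nL into about 80 µL; one replicate is shown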
BJeLR lethal: BJeLR cell viability loss. BJeLR (HRASV12) viability, CellTiter-Glo ATP luminescence, 48 h; reference of the scale not given here. inhibition, % (test concentration not listed). 300,000 tested, 0.17% active;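 active = replicate mean above 50%; inconclusive = above 50% but judged a plate artefact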;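 also: 50 nL library stock added to about 25 µL; numbers are from one replicate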
ugtP null kill: growth inhibition of S. aureus ugtP deletion strain; 330,000 tested, 0.54% active; S. aureus RN4220 ugtP deletion, OD600 growth, 16 h; some inactives read as strong as hits; AID 1259309; growth inhibition, % (concentration not given with the values);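 active = z-score under -3 and OD600 up to 0.15 on both plates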;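 also: plate controls were untreated wells for no effect and antibiotic for full effect; wells of about 80 µL received 100 nL stock; the first replicate is given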
PrP 5UTR inh: suppresses PrP 5' UTR mRNA reporter expression; cell-based PrP 5' UTR mRNA reporter, plate reader; inhibition, % (concentration not given with the values); 340,000 tested, 0.35% active;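 active = every replicate at 50% or more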;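 also: 0 = median of the neutral control wells; tested in H4 reporter cells; numbers are from one replicate; inactives centre near -14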
Bead autofluor: counter-screen for toxin protease inhibitors: compound fluorescence; 360,000 tested, 3.1% active; fluorescence intensity (test concentration not listed); compound autofluorescence counterscreen, microsphere flow cytometry; hits give high values;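 active = at least 3 SD above the mean of all compounds, about 16000 in these data; inconclusive = too few beads counted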;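 also: 100 nL of 1 mM stock went into each well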
Mtb hypoxia inh: reduces hypoxia-regulated biosensor signal in M. tuberculosis | fluorescence inhibition, % (no concentration beside the values) | 300,000 tested, 0.1% active | M. tuberculosis hypoxia-regulated fluorescent reporter, fluorescence;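 active = 35 to 45% if threefold the growth effect, above 45% if 1.5-fold the growth effect; inactive = the rest, general growth blockers included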;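 also: wells of about 50 µL received 100 nL stock; 0% = vehicle wells and 100% = reference inhibitor wells; whole bacteria with a GFP reporter of the hypoxia response; strong numbers were not always called active; many hits fall short of the cut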
Mtb hypoxia inh growth: also measured in Mtb hypoxia inh; calls as there; growth inhibition, %; measured here: M. tuberculosis growth (absorbance);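 0% = vehicle and 100% = reference antibiotic; read after six days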
Numbers without * were called inactive; ? = inconclusive; . = not tested or not shown; & = joins results of further samples. Hits appear at their usual frequency; about 4% have a hit in one of these screens.

SMILES	RN4220 kill	BJeLR lethal	ugtP null kill	PrP 5UTR inh	Bead autofluor	Mtb hypoxia inh	Mtb hypoxia inh growth
CC(=O)c1c(C)nc(-c2ccccc2)nc1NC(=O)Cc1ccccc1	-0.6	-9	2	-32	3245	3	5
CN1CCC(OC(=O)COc2ccc(F)cc2)CC1	3.0	1	7	-24	3938	7	9
CN=Cc1cc(-c2ccccc2)sc1O	7.9	0	0	-31	4400	10	7
Cc1onc(-c2ccccc2)c1C(=O)NCc1ccc(Cl)cc1	7.9	-1	-1	-10	3884	-6	3
O=C(NCc1cccnc1)c1csc2c1CCCC2	.	-16	.	-15	2052	.	.
O=C1CCN(Cc2ccc(Cl)cc2)N1	3.0	2	10	-20	3544	7	-14
Cc1ccc(-c2nc(Nc3ccc(O)cc3)c3ccccc3n2)cc1	-2.2	-4	13	2	4012	18	12
Cc1ccc(-c2csc(NC(=O)C3CCN(S(=O)(=O)c4cccs4)CC3)n2)cc1	-1.7	13	3	-26	2143	4	3
CCOC(=O)C1CCCN(Cc2ccc(-c3ccccc3)cc2)C1 (centres undefined)	3.1	2	8	-1	3708	-7	-7
CC(=O)N1CCN(C(=O)CNc2cc(C(F)(F)F)ccc2OCC(F)(F)F)CC1	5.3	-8	2	-2	4449	.	.
COc1cccc(C(=O)Nc2c[nH]c(=O)[nH]c2=O)c1	-1.5	7	1	-20	5903	20	16
CC(/C=N/NC(=O)Cn1cnc2ccccc21)=C\c1ccccc1	.	5	.	-11	1958	.	.
COc1cc2c(cc1OC)C13CCN4CC5CCOC6CC(=O)N2C1C6C5CC43 (centres undefined)	1.8	.	1	-17	4309	12	14
CN(Cc1ccccc1)C(=O)COc1ccc(Br)cc1Cl	4.4	0	9	-18	5056	1	9
Cn1cnc(CCN)c1	7.5	4	0	-6	6160	1	11
O=C(CCc1nnc2ccc(N3CCCC3)nn12)Nc1ccc(F)cc1F	-1.7	0	0	-6	6318	-3	-1
O=C(/C=C/c1cccs1)Nc1ccc([N+](=O)[O-])cc1	9.6	23	-17	-39	2543	-1	3
Cc1nc(N)sc1C(=O)NN=Cc1cccnc1	-0.8	.	4	.	.	-12	-12
O=C1NC(=S)S/C1=C\c1cc(Cl)ccc1Cl	100*	.	100*	-19	3745	-3	-1
N#Cc1cccc(NC(=O)COc2ccc(-n3ccnc3)cc2)c1	-0.8	3	2	-10	23571*	4	7
Cc1nnc2ccc(Oc3ccc(-c4ccccc4)cc3)nn12	9.5	-1	-1	-19	11500	11	9
CCOc1ccc(/C=N/Nc2nc(=O)[nH]nc2C)cc1OC	.	-3	.	-14	2691	.	.
C/C(=N\Nc1ncc(Cl)cc1Cl)c1ccc(OC(F)F)cc1	.	-13	.	-29	2467	.	.
CCCCn1c(=O)[nH]c(=O)c2c1nc(-c1ccccc1F)n2Cc1ccccc1	-3.1	-12	6	-22	4287	10	4
Cc1ccc(NC(=O)COC(=O)CCn2c(C)csc2=O)cc1S(=O)(=O)N1CCOCC1	4.1	3	4	-33	5060	0	-1
O=S(=O)(Cc1ccccc1)Nc1ccc(S(=O)(=O)N2CCCC2)cc1	16	10	2	2	4284	13	2
Cc1nc(N2CCCCC2)c2c(C)c(C(=O)Nc3ccccc3C(F)(F)F)sc2n1	2.6	1	-13	-6	1937	1	4
Cc1cc(SCC(=O)NC2(C#N)CCCCC2)nc2c(C)cccc12	15	0	6	-8	5966	7	3
COC(=O)C1=C(C(=O)OC)C(c2ccccc2O)c2sc(=O)[nH]c2S1 (centres undefined)	18	24	1	-22	6804	16	8
Cc1ccc(C(=O)OCC(=O)NCc2cccs2)cc1C	7.4	-3	10	-2	4583	5	-1
COc1ccccc1CNCc1ccc(C)cc1	1.2	0	1	-47	4116	-8	-5
Cc1ccc(/C=C/C(=O)Nc2ccc(S(=O)(=O)Nc3onc(C)c3C)cc2)cc1	.	-3	.	-33	3866	.	.
CCOc1cc(C(=O)OCC(=O)c2c(C)[nH]c3ccccc23)ccc1OCC(=O)N1CCOCC1	1.6	-3	-16	-3	21648*	0	9
COc1ccccc1NS(=O)(=O)c1ccc(C(=O)N2CCN(c3ccccc3O)CC2)cc1	4.3	-2	-1	7	5702	-6	7
Nc1nc(Sc2ccc(C(F)(F)F)cn2)n[nH]1	-0.3	1	4	-5	2513	-7	-2
COc1ccccc1NS(=O)(=O)c1cc([N+](=O)[O-])ccc1N/N=C/c1sc(N2CCOCC2)nc1-c1ccccc1	.	1	.	-1	8826	.	.
O=C(O)C1CCCCC1C(=O)NCCc1ccccc1 (centres undefined)	-2.4	-2	4	-13	15725	-2	-2
Cc1cc(NC(=O)C(=O)NCc2cccc(Cl)c2)no1	2.3	2	1	-15	4844	1	4
COc1ccc(C(=O)N(CCc2ccccc2)Cc2cccs2)c(OC)c1	-0.3	-4	-4	-16	2929	-3	-1
O=C(Nc1cscc1S(=O)(=O)c1ccc(Cl)cc1)c1ccccc1Cl	0.4	-10	2	.	?	0	5
Cc1cc(Br)c(NC(=O)COC(=O)c2ccc[n+]([O-])c2)c(Br)c1	2.5	.	0	-12	3800	-3	5
Cc1ccc(C=NNc2ccc(F)cc2)s1	3.2	.	-4	.	.	4	-9
CC(C)C1C=C(C(=O)O)OC(OCc2ccc(CO)cc2)C1 (centres undefined)	8.0	.	-1	.	.	9	1
COc1ccc(OCCN(C)Cc2ccccc2)cc1	8.3	-1	10	-25	10337	15	3
COCCN(Cc1nc2ccccc2c(=O)[nH]1)C(=O)COc1c(C)cc(Cl)cc1C	9.7	.	2	-21	5294	-3	2
C=CCc1ccc(OCCOCCOc2cccc3ccc(C)nc23)c(OC)c1	5.5	13	-5	6	11234	4	8
Cc1ccc(OCC(=O)N2CCCC(CO)(CCOc3ccccc3)C2)cc1 (centres undefined)	7.2	-8	5	-7	6004	4	1
CC(=O)NC(CCS(C)(=O)=O)C(=O)Nc1ccc(Oc2ccccc2)cc1 (centres undefined)	-5.7	1	0	7	4838	6	6
COc1ccccc1CNC(=O)C1CC(c2ccccc2C(F)(F)F)=NO1 (centres undefined)	10	3	5	-15	2965	14	8
CCCCCOc1ccccc1C(=O)NCC(=O)O	6.2	-5	4	-26	4523	-8	-7
O=C(Nc1cccc([N+](=O)[O-])c1)c1ccncc1	4.1	-13	5	0	2348	0	5
Cc1ccc(Cl)c(OCCCCN2CCC(C)CC2)c1	1.2	.	5	-21	4049	-10	8
Cc1ccc(NS(=O)(=O)c2ccc(NC(=O)[C@@H]3CCCC[C@@H]3C(=O)O)cc2)c(C)c1	0.1	13	2	-17	3536	.	.
CCOc1ccc(C(=O)COC(=O)c2ccc(-n3cnnn3)cc2)cc1	2.6	4	11	-22	5643	1	-6
CC(=O)NS(=O)(=O)c1ccc(NC(=O)CCc2ccccc2)cc1	3.3	17	7	-25	2534	2	2
Cc1c(C(C)(C)C)c(C=S)n2ccccc12	5.0	-1	0	-3	21631*	5	9
CCOc1cc(/C=N/Nc2nc3ccccc3[nH]2)cc(Br)c1OCC(=O)N(C)C	.	2	.	-15	3175	.	.
CCOc1cc(C=NNC(=O)Cc2ccc(C(F)(F)F)cc2[N+](=O)[O-])ccc1O	-1.1	.	2	.	.	-4	-1
CN1c2ccccc2C(C)(C)C12C=Cc1cc(O)ccc1O2 (centres undefined)	2.9	-1	3	-16	7800	3	-8
COCc1cc(=O)[nH]c(N=C(N)Nc2ccc(Oc3ccccc3)cc2)n1	8.2	.	7	.	.	-8	-3
(listing goes on)
SMILES	RN4220 kill	BJeLR lethal	ugtP null kill	PrP 5UTR inh	Bead autofluor	Mtb hypoxia inh	Mtb hypoxia inh growth
CCc1ccc(CN2CCC(n3nccc3NC(=O)C3CCCC3)CC2)cc1	0.9	3	0	-9	4115	7	12
COc1ccc(NC(=O)C2C(=O)N(CCO)C3(C)CC2c2ccccc2O3)cc1 (centres undefined)	-12	-5	0	-9&-11	3380	15	12
Cc1ccc2c(CN(C)Cc3ccccc3)cc(=O)oc2c1C	-1.6	2	2	-42	3670	12	1
CC1CC(C)CN(S(=O)(=O)N2CCCC(C(=O)NC3CCCCC3C)C2)C1 (centres undefined)	2.1	10	8	-14	4158	-1	-6
O=C(O)CCN1C(=O)c2ccncc2C1=O	-2.4	7	-1	1	15325	-4	5
CCC(C)c1ccccc1NC(=O)COC(=O)c1ccc2c(c1)S(=O)(=O)c1ccccc1C2=O (centres undefined)	7.8	-7	-5	-20	2498	5	-1
O=C(COC(=O)c1nc(Cl)ccc1Cl)Nc1ccc2c(c1)OCO2	5.6	-9	3	-12	2437	-3	-6
CC(C)CNC(=O)c1cccc(Cn2cc(Cl)cn2)c1	-3.4	17	-2	-12	3575	21	35
COc1ccc(CC(=O)N/N=C/c2cccnc2)cc1OC	.	1	.	-3	4096	.	.
CCN(CC(=O)Nc1c(F)cccc1F)C(=O)CCc1nc2cc(S(=O)(=O)N(C)C)ccc2n1CC	2.3	-14	1	14	5366	8	8
c1cncc(C2CCCCN2Cc2ccc3c(c2)OCO3)c1 (centres undefined)	4.8	-12	10	-20	5910	9	2
COCCN=C1OC(=O)N2C(=O)C3=C4C(CC5C(=O)N(c6ccccc6)C(=O)C5C4[C@@]12Cc1ccccc1)C1C(=O)N(c2ccccc2)C(=O)C1C3C (some centres undefined)	1.2	.	-1	.	.	17	13
CC(C)Cc1ccc(C(=O)NCc2ccc3c(c2)OCO3)o1	5.0	7	2	-13	3990	-5	2
CCN1CCN(CCCNC(=O)CCC(=O)N2CCOc3ccccc32)CC1	-3.7	7	12	-11	4475	7	2
COC(=O)C1=C(C)N(CCc2c[nH]c3ccccc23)C(=O)/C1=C\N(C)C	1.8	.	-2	-20	3424	15	6
CCN(C[C@H]1N[C@@](Cc2ccccc2)(C(=O)OC)[C@H]2C(=O)N(C)C(=O)[C@@H]12)S(=O)(=O)c1ccc(C(C)(C)C)cc1	3.5	.	-2	60*	3602	1	4
Cc1cc(OCC(=O)N2C[C@H]3C[C@@H](C2)c2cccc(=O)n2C3)c2c(C)c(C)c(=O)oc2c1	-0.1	2	2	-15	4043	.	.
CCCCC(=O)Nc1nnc(S(=O)(=O)N(CC)c2ccccc2)s1	9.0	-3	3	-29	4051	5	2
Cc1oc2c(C)c3oc(=O)c(CC(=O)N[C@@H](CCCNC(N)=O)C(=O)O)c(C)c3cc2c1C	3.4	-4	13	-26	3425	-17	-2
Cc1ccc(S(=O)(=O)N2CCOC23CCN(C(=O)C(=O)NCc2ccccc2)CC3)cc1	1.2	4	2	-15	?	7	6
CC(=O)c1ccc(N2CCN(C(=O)CN3C(=O)NC4(CCCCC4)C3=O)CC2)c(F)c1	5.1	.	2	-10	8873	-13	-2
Cc1noc(C)c1S(=O)(=O)Nc1ccc(C(=O)N2CCN(c3ccc(F)cc3)CC2)cc1	4.6	2	7	44	4435	11	-1
C=CC[C@@H](CC(=O)N[C@H](CO)Cc1ccccc1)C(=O)NC[C@@H](OC(=O)[C@@H](CC=C)Cc1ccc(F)cc1)c1ccccc1	-2.0	.	-10	-4	3043	0	-3
O=C(COC(=O)CCC1CCCC1)Nc1ccccc1Br	2.1	.	1	3	5244	-6	9
CCOC(=O)C(=Cc1ccc(C)cc1)NC(=O)c1ccccc1	-1.4	.	-13	.	.	2	3
O=C1c2ccccc2C(=O)N1CCCc1cn(CC2CCC(C3CCC(Cn4cc(CCCN5C(=O)c6ccccc6C5=O)nn4)O3)O2)nn1 (centres undefined)	1.3	.	-8	.	.	2	5
CCOC(=O)C1CCCN(C(=O)Cn2nc(C)n3c(cc4c(OC)cccc43)c2=O)C1 (centres undefined)	2.3	-17	2	-5	4343	-4	8

Another view of some results above:
molecule,RN4220 kill,BJeLR lethal,ugtP null kill,PrP 5UTR inh,Bead autofluor,Mtb hypoxia inh,Mtb hypoxia inh growth
O=C1NC(=S)S/C1=C\c1cc(Cl)ccc1Cl,100*,.,100*,-19,3745,-3,-1
COc1cc2c(cc1OC)C13CCN4CC5CCOC6CC(=O)N2C1C6C5CC43 (centres undefined),1.8,.,1,-17,4309,12,14
Cn1cnc(CCN)c1,7.5,4,0,-6,6160,1,11
O=S(=O)(Cc1ccccc1)Nc1ccc(S(=O)(=O)N2CCCC2)cc1,16,10,2,2,4284,13,2

High-throughput results: PubChem BioAssay, several laboratories
